Sa helicase inh = S. aureus DNA helicase inhibition; purified S. aureus helicase, fluorescence unwinding assay; about half of the hits fall short of the stated cut; 120,000 compounds, 0.05% hits; inhibition, %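 (tested at about 80 µM)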;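 active means both duplicates at 50% or more, or one of them with a favoured structure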;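 further: 0% = mean of negative control wells and 100% = mean of positive control wells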
MgrA DNA FP = S. aureus MgrA-DNA binding modulation | inhibition, %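 (about 10 µg/mL by stock and volumes)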 | fluorescence polarization | 84,000 compounds, 0.13% hits;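 active means above 50% in either of two replicates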;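 further: 0% = protein plus DNA without compound and 100% = DNA alone without protein; higher means less MgrA bound to DNA so lower polarization; one replicate is shown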
* hit, by the source's call; . = no result given.

SMILES	Sa helicase inh	MgrA DNA FP
COc1cc(C2Nc3ccccc3NC3=C2C(=O)CC(c2ccc(Cl)cc2)C3)cc(OC)c1OC (stereo not drawn)	.	-0.9
COC(=O)c1cc2nc(-c3ccccc3)cc(C(F)(F)F)n2n1	5	-4.0
O=C(O)C1CC=CCC1C(=O)Nc1ccc(Cl)cc1 (stereo not drawn)	-3	-2.4
CN1CCN(C(=O)CCN2C(=O)/C(=C/c3ccccc3)SC2=S)CC1	4	1.6
CC(C)c1ccc(OCCN2CCNCC2)cc1	16	-3.3
COc1ccc(NC(c2ccc(C)cc2)n2ncc3c(=O)n(C)c4ccccc4c32)cc1 (stereo not drawn)	8	-0.7
CN1CCCN(Cc2coc3ccccc3c2=O)CC1	-3	1.9
CC(C(=O)N1CCCCC1)N1Cc2ccccc2C1=O (stereo not drawn)	-28	.
Cc1ccc(C)c(C(=O)Cn2cc(Br)ccc2=O)c1	-8	.
CN1c2ccccc2N(C)C1/C=C/c1ccccc1	8	-2.2
N#CCc1[nH]nc(N)c1C#N	.	1.6
CC1CCN(CN2C(=O)N(CN3C(=O)N(CN4CCC(C)CC4)C(=O)C3(C)C)C(C)(C)C2=O)CC1	-33	.
N#C/C(=C/c1ccc(-c2ccc(Cl)c(C(=O)O)c2)o1)C(=O)NC1CCCC1	-13	4.4
O=c1[nH]c2nc[nH]c(=O)c2[nH]1	.	-2.2
Cn1nc(-c2ccc(N3CCOCC3)c(NS(C)(=O)=O)c2)c2ccccc2c1=O	19	2.4
CSc1nc2ccc(NC(=O)CCC(=O)c3cccs3)cc2s1	-2	.
Cc1ccc(-c2nc(-c3ccc(C)cc3)[nH]c(=O)n2)cc1	4	-17
Cc1ccc(/C=C/C(=O)Nc2cccc(NC(=O)/C=C/c3ccc(C)o3)n2)o1	-1	0.6
O=C1CC(/C=C/c2ccc(Cl)cc2)=Nc2ccccc2N1	-8	0.5
Cc1ccc2nc(NC(=O)CCc3nc4cc(S(=O)(=O)N5CCCCC5)ccc4n3C)sc2c1	0	.
CC(=O)N1CCC2(CC1)Oc1ccccc1C1CC(c3ccccc3)=NN12 (stereo not drawn)	-2	.
CCOC(=O)c1c(C)nsc1NN=C(C#N)C(=O)C(C)(C)C	9	.
CC(C)c1ccc(NC2=NCC(=O)N2Cc2ccccc2)cc1	9	-5.9
Nc1ncc(S(=O)(=O)c2ccc(Cl)cc2)c(N)n1	.	3.4
COC(=O)c1scc(S(=O)(=O)C(C)C)c1N/N=C(\C#N)C(=O)c1ccc(Cl)cc1	.	1.0

Other results follow:
SMILES	Sa helicase inh	MgrA DNA FP
CN(C)S(=O)(=O)c1cccc(CSc2cccc[n+]2[O-])c1	12	.
Cc1cc(=O)[nH]c(SCC(=O)c2ccccc2)n1	19	.
O=S(=O)(c1ccccc1)C1(S(=O)(=O)c2ccccc2)CCCC1	6	-2.0
COc1ccc(C2NC(C(=O)O)C3C(=O)N(c4ccc(F)cc4)C(=O)C23)c(OC)c1OC (stereo not drawn)	-48	.
Nc1cc(N)cc(C(F)(F)C(F)(F)C(F)(F)F)c1	23	-1.2
COC(=O)c1c(OC)ccc([N+](=O)[O-])c1OC	.	-2.2
CCOc1cc(/C=C2/SC(=S)N(c3ccc4c(c3)OCO4)C2=O)ccc1O	-34	.
CCCSc1nc2ccccc2n1CN(C)Cc1ccc2c(c1)OCCO2	8	.
CCOC(=O)c1csc2c1CCC/C2=N/OC(C)=O	10	0.0
COc1cc(/C=C\C(C)=N\O)ccc1OCc1ccccc1	-2	.
Cc1nc2ccccc2n1CC(=O)OCC(=O)NC1CC1	-6	.
O=C1C2CNC3(C(=O)Nc4ccccc43)C2C(=O)N1C1CCCCC1 (stereo not drawn)	11	-1.2
O=C(OCc1c(F)cccc1Cl)c1cnc2sccn2c1=O	-7	.
O=C1CCCN1CCCNc1nc2ccccc2n2cnnc12	10	.
O=C1Cc2cc(C(=O)CSc3nnc4c(n3)CCCC4)ccc2N1	0	12
CC1(C)CC(=O)C(C2(O)C(=O)N(Cc3ccccc3)c3ccccc32)CO1 (stereo not drawn)	6	.
CCO/C=C(\C#N)C(=O)Nc1ccc(F)c(Cl)c1	12	.
Cc1ccc(OCCSc2nc3ccccc3n2CCC(=O)O)cc1	8	.
C#CC(C)(C)NC(=O)c1cccnc1Oc1ccccc1	-4	.
O=C1C=CC(=O)N1c1ccc(-c2csnn2)cc1	.	8.4
O=C1NCCN1C(=O)C(c1ccccc1)c1ccccc1	0	-1.2
Clc1nc2ccc(Br)cc2s1	9	.
CCCCNc1nc(-c2ccccc2)no1	19	.
Cc1nc2ccccc2nc1CSc1nnc2ccccn12	-18	.
CC(C)(C)c1cc(/C=N/n2c(N)nc3ccccc32)cc(C(C)(C)C)c1O	-20	1.1

Single records, as listed above. Screens in order: Sa helicase inh	MgrA DNA FP
Shown for COC(=O)c1c(OC)ccc([N+](=O)[O-])c1OC : .	-2.2
Shown for CCO/C=C(\C#N)C(=O)Nc1ccc(F)c(Cl)c1 : 12	.
Shown for O=S(=O)(c1ccccc1)C1(S(=O)(=O)c2ccccc2)CCCC1 : 6	-2.0
Shown for COc1ccc(C2NC(C(=O)O)C3C(=O)N(c4ccc(F)cc4)C(=O)C23)c(OC)c1OC (stereo not drawn) : -48	.
Shown for Cc1cc(=O)[nH]c(SCC(=O)c2ccccc2)n1 : 19	.

Additional entries follow.
SMILES	Sa helicase inh	MgrA DNA FP
CCOC(=O)Cc1csc(NC(=O)c2ccc(Cl)cc2)n1	.	0.2
O=c1[nH]cnc2scc(-c3ccsc3)c12	3	-2.8
N/C(=N/O)c1nccnc1Sc1ccc(Cl)cc1	.	1.9
O=C(/C=C/c1ccccc1)N1CCC(c2ccccc2)C1 (stereo not drawn)	10	-1.8
CN(Cc1ccccc1)CC(O)COCC1=CCC2CC1C2(C)C (stereo not drawn)	7	.
CC1CCCC1/C(=N/O)c1ccccc1 (stereo not drawn)	.	-1.8
O=C(CSc1nc2ccccc2c(=O)[nH]1)c1ccc(S(=O)(=O)N2CCCCC2)cc1	-1	.
CN1CCCC1=Nc1ccccc1C#N	-6	0.1
COc1cc(I)c(OC)cc1I	.	1.3
CC1=Nc2ccccc2N=C(C)C1	-5	2.4
CC(C)CCNc1ncnc2c1sc1nc(-c3ccco3)c3c(c12)CCCC3	28	.
NC(=S)N/N=C/c1cn[nH]c1-c1ccccc1	4	14
O=S(=O)(NCc1cccnc1)c1ccccc1	.	1.3
CC1CCCCN1C(=O)COC(=O)c1ccccc1NCc1ccco1 (stereo not drawn)	3	.
Cc1ccc(S(=O)(=O)C2(C(=O)NC3CCCC3)CC2)cc1	14	.
Oc1[nH]c2ccccc2c1C=NCCC1=CCCCC1	13	5.7
CC(C)CNc1cnnc2c(Cl)cccc12	-14	.
CC(=O)Nc1nnc(-c2ccc3c(c2)CCCC3)o1	-17	.
CCN=C1S/C(=C\c2cn(CC(=O)NCc3ccco3)c3ccccc23)C(=O)N1CC	-4	3.1
O=C(NCc1cccs1)NC(=O)c1c(Cl)cccc1Cl	.	-0.9
CC1NC(=S)N(c2ccc(C(C)C)cc2)C1=O (stereo not drawn)	-17	.
Cn1ncc2ccccc2c1=O	.	1.9
CCN(CC)S(=O)(=O)c1ccc(S(=O)(=O)NCc2ccc3c(c2)OCO3)cc1	0	-0.5
COC(=O)c1ccccc1NS(C)(=O)=O	.	0.4
O=C(CSc1nnc(SCC(=O)NC2Cc3ccccc3C2)s1)NC1Cc2ccccc2C1	.	-1.1

Next section
SMILES	Sa helicase inh	MgrA DNA FP
Cc1nnc(SCC(=O)Nc2cc(-c3ccc(Cl)cc3)nn2C)n1C	-5	.
CC(=O)N1CCC2(CC1)CC(=O)c1cc(OCC(=O)NCc3ccccc3)ccc1O2	13	.
COc1ccc(Nc2ncnc3nc[nH]c23)cc1	6	.
CCOC(=O)c1c[nH]c2cc(Cl)cc(Cl)c2c1=O	.	0.3
COc1ccc(OC)c(NC(=O)CSc2ncnc3c2oc2ccccc23)c1	0	.
O=C(CCn1c(=O)oc2ccccc21)n1c(=O)oc2ccccc21	3	6.2
NC(=S)NN=C1Cc2ccccc2C1	20	.
COc1ccc(C(N)CCc2ccco2)cc1 (stereo not drawn)	14	.
COc1ccc(CNC(=O)c2cccc(NC(C)=O)c2)cc1OC	5	.
O=S(=O)(c1ccccc1Oc1ccc(Cl)cc1Cl)N1CCOCC1	.	-3.0
CCN(CC)CC(=O)N1N=C(c2ccc(OC)cc2)CC1c1cccc(OC)c1OC (stereo not drawn)	2	.
CC1(C)C=C(C(N)=O)C(C)(C)N1	.	-0.2
CC1(C)N=C(Nc2ccccc2)SC1=N	6	-0.1
O=c1cc(NCCNc2cc(=O)oc3ccccc23)c2ccccc2o1	-29	.
Cc1nc(NCCCn2ccnc2)c2ccccc2n1	-21	2.9
Cn1nc(OCC(=O)Nc2ccc(Cl)cc2Cl)cc1C(F)(F)F	.	0.1
CNC(=S)NNc1nc(N2CCCC2)nc(N2CCCC2)n1	14	.
CCC(SC1=Nc2ccccc2C2=NC(c3ccccc3)C(=O)N12)C(=O)NCc1ccc(C)cc1 (stereo not drawn)	3	0.9
Cc1cccc(CC(=O)Nc2c(C(N)=O)oc3ccccc23)c1	5	.
CCN(CC)C(=O)Cn1cnc2c(cnn2-c2cccc(Cl)c2)c1=O	9	.
Cc1ccc(NC(=O)N(C)CCOc2ccccc2)cc1	31	.
CCC(c1nc2ccccc2c(=O)n1CCCn1ccnc1)N1C(=O)c2ccccc2C1=O (stereo not drawn)	6	-4.8
O=C(NCC1(c2ccccc2)CCOCC1)c1cccc(Cl)c1	15	.
CS(=O)(=O)c1ccc(NC(=O)Cc2n[nH]c(=O)c3ccccc23)cc1	-19	.
O=C(NCc1ccccc1)c1ccc(=O)[nH]n1	5	.

A draw from above in order of formula weight, descending.
SMILES	Sa helicase inh	MgrA DNA FP
O=S(=O)(c1ccccc1Oc1ccc(Cl)cc1Cl)N1CCOCC1	.	-3.0
Cc1nc(NCCCn2ccnc2)c2ccccc2n1	-21	2.9
COc1ccc(Nc2ncnc3nc[nH]c23)cc1	6	.
CC1(C)N=C(Nc2ccccc2)SC1=N	6	-0.1
NC(=S)NN=C1Cc2ccccc2C1	20	.

(more compounds)
SMILES	Sa helicase inh	MgrA DNA FP
Cc1nc(Cc2nnc(SCC(=O)Nc3ccc(S(=O)(=O)N4CCCC4)cc3)o2)cs1	-7	.
Cn1cc(/C=N/NC(=O)C(O)c2ccccc2)c2ccccc21 (stereo not drawn)	-8	2.6
Nc1cc(C(=O)O)ccc1NCCCN1CCOCC1	6	-0.9
O=C(CSc1nc2c(oc3ccccc32)c(=O)n1C1CCCC1)Nc1nccs1	0	.
O=C(CSc1ncc(CO)n1Cc1ccccc1)N1CCc2ccccc21	0	.
O=C(NCCCN1CCCC1)c1ccccc1Cl	4	-2.9
CN(C)CCN(C)Cc1ccccc1	0	0.6
CCOC(=O)c1ccc(NC(=O)CON=c2c(C)nc3ccccc3nc2C)cc1	-20	.
CN(CC(=O)NN1C(=O)NC2(CCCCC2)C1=O)Cc1ccc(Cl)cc1	2	.
COc1ccc(C(=O)NCCn2cc(SC(C)c3ccccc3)c3ccccc32)cc1 (stereo not drawn)	9	-0.7
COC(=O)c1ccc(NC(=O)C2CC(=O)N(Cc3ccc4c(c3)OCO4)C(=Nc3ccc(F)cc3)S2)cc1 (stereo not drawn)	.	-2.0
Cc1cccc(C)c1NC(=O)CCN1CC(C)OC(C)C1 (stereo not drawn)	.	-1.6
Nc1nc2ccccc2cc1S(=O)(=O)c1ccccc1	.	-0.1
CC1CC(C)CN(C(=S)Nc2ccccc2)C1 (stereo not drawn)	2	3.7
CCOC(=O)c1oc2ccccc2c1CN1CCSC1=Nc1ccc(OC)cc1	-4	.
Cc1ccc(NC(=O)NC2CC2)cc1C	-2	-1.2
Cc1oc2c(CN(C)C)c(O)ccc2c(=O)c1-c1ccccc1Cl	-10	.
CC(C)n1cc(/C=C(\C#N)S(=O)(=O)c2ccccc2)c2ccccc21	9	0.3
CCCNc1c(NS(=O)(=O)c2ccc(NC(=O)CC)cc2)c(=O)oc2ccccc12	-3	.
O=C(O)CCCC(=O)Nc1ccc(Br)cc1	12	-0.2
CCN1/C(=C/C2=CC(=O)CC(C)(C)C2)Sc2ccccc21	-76	-20
CCc1ccc(NC(=O)Cc2csc(C)n2)cc1	10	.
O=C(O)CN1C(=O)/C(=C\c2cc([N+](=O)[O-])ccc2Cl)SC1=S	.	7.7
Nc1oc(-c2ccc(Cl)cc2)cc1C(=O)c1ccc(Cl)cc1	9	-1.9
Cc1ccc(S(=O)(=O)N2CCN(C(C)CC(=O)O)CC2)cc1 (stereo not drawn)	-8	.

(more compounds)
SMILES	Sa helicase inh	MgrA DNA FP
C=CCNc1nc(C(=O)OCc2c(C)noc2C)cs1	-1	.
NNc1cccc(C(F)(F)F)c1	-13	-5.1
CC(=O)c1cc2c(cc1Br)OCCO2	.	-0.2
Cc1ccc2ncnc(Oc3ncccc3N)c2c1	.	-1.6
CCOc1ccc2nc(SCC(=O)NC3CC3)sc2c1	3	0.7
COCCOC(=O)C1=C(C)NC2=C(C(=O)CC(c3ccc(OC)cc3)C2)C1c1ccc(OC(C)=O)c(OC)c1 (stereo not drawn)	.	-1.7
COc1ccccc1NC(=O)C1CCN(C(=O)c2ccccc2)CC1	1	19
O=C(O)C1CC(=O)N(Cc2ccc(C(F)(F)F)cc2)C1 (stereo not drawn)	.	-1.9
COc1ccc(CCNS(=O)(=O)c2c(C)cc(C)c(-n3cnnn3)c2C)cc1OC	15	-0.7
Cn1c(Cn2c(=O)sc3ccccc32)nnc1SCC(=O)Nc1ccc2c(c1)OCO2	9	.
CN(Cc1ccccc1)C(=O)CSc1ncn[nH]1	7	.
CN1CCN(c2nsc(NO)c2Nc2ccc(Br)cc2)CC1	6	-6.3
Cc1ccc(NC(=O)CC(NCc2ccco2)C(=O)O)cc1C (stereo not drawn)	-17	.

Some of the compounds tested; the hit share may differ from the screen's.
